SARS PLP yeast: blocks SARS-CoV papain-like protease in a yeast assay. Potency, µM (series often up to 32.9 µM), without a hit: top-dose activity, positive = growth rescue. S. cerevisiae expressing SARS-CoV PLpro, growth rescue; control for the full effect not named in the record. 330,000 compounds, 0.19% hits; active means well fitted rising curve with a large enough effect; inconclusive means small, poorly fitted or top-dose-only effect; inactive means no such curve, though single readings can be large or run the other way; further: 0% is about no effect; nearly all actives have a fitted effect of over 55% in size; growth read by luminescence after 48 h
Lassa entry inh: inhibitors of Lassa virus binding or cell entry; 300,000 compounds, 1.2% hits; AID 540256; Potency, µM (top dose mostly 37.9 µM), without a hit: at the highest dose activity change, negative = inhibition, actives largely listed as inhibitors; Lassa virus pseudotype entry inhibition, cell reporter; control for the full effect not named in the record; active means well fitted inhibition curve with a large enough effect; inconclusive means small, poorly fitted or top-dose-only effect, or effect the other way; inactive means flat fitted curve, though single readings scatter; tested in HEK293 cells; further: on the % scale 0 is the no-effect control and ±100 the full control effect; nearly all actives have a fitted effect of over 50% in size; luciferase read-out
StopGo reporter: lowers the luciferase signal of an FMDV 2A StopGo reporter; 410,000 compounds, 1.2% hits; human cells with a luciferase reporter of 2A StopGo recoding; control for the full effect not named in the record; Potency, µM (highest dose often 57.9 µM), without a hit: at the top dose signal change, negative = less light; active = well fitted falling curve with a large enough effect; inconclusive = small, poorly fitted or top-dose-only effect; inactive = no such curve, though single readings can be large or run the other way; tested in HEK293T cells; further: on the % scale 0 is the no-effect control and ±100 the full control effect; nearly all actives have a fitted effect of over 45% in size; luciferase light after 4 h
Marburg entry inh: inhibitors of Marburg virus binding or cell entry; Potency, µM (series often up to 37.8 µM), without a hit: at the highest dose activity change, negative = inhibition, most hits filed as inhibitors; 300,000 compounds, 1.8% hits; Marburg virus pseudotyped entry inhibition, cell reporter; control for the full effect not named in the record; about a third of the inactives were read at about 46 µM; AID 540276; active = well fitted inhibition curve with a large enough effect; inconclusive = small, poorly fitted or top-dose-only effect, or effect the other way; inactive = flat fitted curve, though single readings scatter; tested in HEK293 cells; about a fifth of its hits are not listed in these tables; further: on the % scale 0 is the no-effect control and ±100 the full control effect; luciferase read-out
RE007 growth inh: less growth of the S. pombe RE007 Vpr strain; Potency, µM (top dose mostly 92.2 µM), for the others: top-dose activity change, negative = less growth; AID 651644; S. pombe RE007 Vpr strain, BacTiter-Glo ATP luminescence, 24 h; control for the full effect not named in the record; 360,000 compounds, 0.21% hits; active = well fitted falling curve with a large enough effect; inconclusive = small, poorly fitted or top-dose-only effect; inactive = no such curve, though single readings can be large or run the other way;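 further: on the % scale 0 is the no-effect control and ±100 the full control effect; nearly all actives have a fitted effect of over 50% in size; the assay follows cell death caused by Vpr and the record does not say whether a fall means rescue or toxicity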
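Fission yeast RE007 carrying one integrated HIV-1 vpr copy, seeded at OD 0.01 in PMG+AL medium with 23 nL pinned compound. Grown 24 h at 30 degrees; viability read by BacTiter-Glo luminescence after 5 min.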
Cruzain inh Det: blocks cruzain activity in presence of Triton detergent; purified cruzain, Z-FR-AMC fluorescence, 0.01% Triton; 200,000 compounds, 0.43% hits; Potency, µM, inactives show max response, negative = inhibition, actives largely listed as inhibitors; AID 1478;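 further: plate controls were neutral wells for no effect and buffer without enzyme for full effect; nearly all actives have a fitted effect of over 40% in size; top concentration of the series not given in the record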
Target sequence (P25779 123-467 limits assumed): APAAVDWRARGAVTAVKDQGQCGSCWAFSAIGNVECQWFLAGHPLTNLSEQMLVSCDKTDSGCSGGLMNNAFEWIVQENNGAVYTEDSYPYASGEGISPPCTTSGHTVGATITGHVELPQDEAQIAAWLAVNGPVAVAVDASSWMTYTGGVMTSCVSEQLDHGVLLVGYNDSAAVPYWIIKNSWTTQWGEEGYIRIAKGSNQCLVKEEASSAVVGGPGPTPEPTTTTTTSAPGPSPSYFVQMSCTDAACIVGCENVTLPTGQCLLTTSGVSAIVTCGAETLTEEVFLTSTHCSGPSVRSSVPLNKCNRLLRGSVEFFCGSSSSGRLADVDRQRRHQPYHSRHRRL
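Steps: dispense cruzain (1.5 nM final) in acetate buffer pH 5.5 with DTT and 0.01% Triton X-100; pin-transfer compounds; incubate 15 min RT; add Z-FR-AMC (2 uM final); read fluorescence every 30 s, using the 60 s intensity change.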
Cruzain noTriton: cruzain (T. cruzi) inhibition without detergent; purified cruzain, Z-FR-AMC fluorescence, no detergent; Potency, µM, without a hit: max response, negative = inhibition, usual class: inhibitors; 200,000 compounds, 2.3% hits; AID 1476;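 further: plate controls were enzyme without inhibitor for no effect and buffer without enzyme for full effect; nearly all actives have a fitted effect of over 40% in size; top concentration of the series not given in the record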
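Detergent-free condition (0.00005% Triton X-100) in acetate buffer pH 5.5 with DTT. 1.5 nM enzyme and compound were pre-mixed 15 min, then 2 uM Z-FR-AMC substrate added; reaction progress from fluorescence change between first and third reads (60 s).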
NS1 function inh: blocks influenza NS1 protein function; S. cerevisiae slowed by influenza A NS1, growth recovery by OD600; Potency, µM (doses to about 46.1 µM), for inactives: top-dose activity, positive = more growth; 270,000 compounds, 0.4% hits; active means well fitted rising curve with a large enough effect; inconclusive means small, poorly fitted or top-dose-only effect; inactive means no such curve, though single readings can be large or run the other way; further: nearly all actives have a fitted effect of over 50% in size
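S. cerevisiae expressing influenza A NS1, grown in glucose, washed, then diluted 1:100 into pH 6.0 -URA galactose medium with 23 nl compound. Growth recovery read as OD600; NS1-free strain serves as control.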
* = called active by the depositor; u = inconclusive; x = not tested or not shown; & = joins results of further samples; [ ] = dose if it differs, or a comment. Unless noted, the call rests on the fitted dose curve; in most records, active means well fitted curve in the direction sought with a large enough effect; inconclusive means small, poorly fitted or top-dose-only effect, or another doubt; inactive means no such curve, though single readings can be large; an effect the other way counts as inactive or inconclusive. Potency means the concentration at half of the fitted maximal effect.

SMILES	SARS PLP yeast	Lassa entry inh	StopGo reporter	Marburg entry inh	RE007 growth inh	Cruzain inh Det	Cruzain noTriton	NS1 function inh
CCc1cccc(NC(=O)c2nc(-c3ccncc3)no2)c1	x	20%[46.1 µM]	8%	x	x	-0.2%	19%	x
O=C(Nc1ccncc1)c1cc(-c2ccccn2)nc2ccccc12	-2%	x	3%	-9%[46.1 µM]	-15%	x	x	x
COc1cnc(-c2ccccn2)nc1Oc1c(C)cccc1C	29%	-7%[46.1 µM]	8%	u	3%	x	x	x
Cc1ccc([N+](=O)[O-])cc1N(CC(=O)NC1CCCC1)S(C)(=O)=O	1%	18%	-6%	1%[46.1 µM]	3%	x	x	x
COc1ccc(NC(=O)c2cc(-c3ccco3)on2)cc1	0%	u	-1%	u	-1%	x	x	x
CCc1ccc(NC(=O)COC(=O)/C(=C/c2ccccc2OC)c2ccccc2)cc1	-5%	-6%	-2%	u	22%	-1.9%	u	15%
CSc1nc2sc3c(c2c(=O)n1C)CCC(C)C3 (stereo not drawn)	5%	-11%	x	18%	-10%	-0.4%	11%	-2%
COc1ccccc1NC(=O)C(C)OC(=O)Cn1cnc2c1c(=O)n(C)c(=O)n2C (stereo not drawn)	-2%	-23%	-7%	u	13%	x	x	x
Cc1ccc(S(=O)(=O)N2CCN(C(=O)CCC(=O)NCc3cccc(C(F)(F)F)c3)CC2)cc1	-5%	6%	-23%	u	-4%	x	x	x
Cc1ccc(CNC(=O)c2ccccc2NC(=O)CN2CC(C)OC(C)C2)cc1 (stereo not drawn)	1%	6%	-21%	-20%[46.1 µM]	8%	x	x	-13%
CC(=O)c1ccc(NC(=O)Cn2c3ncccc3c(=O)n2-c2ccc(C)cc2)cc1	x	6%[46.1 µM]	-6%	9%[46.1 µM]	x	-6.0%	-10%	x
CC1(C)OC(C(=O)NC2CCCCC2)C(C(=O)NC2CCCCC2)O1 (stereo not drawn)	4%	u	2%	-11%&0%	-5%	2.6%	3%	0%
O=C(CN1CCCCC1)NCC(=O)Nc1ccc(F)c(F)c1F	0%	3%	-20%	1%	u	x	x	x
CCC(C)[C@H](NC(=O)[C@@H]1CSC2c3ccccc3C(=O)N21)C(=O)NCc1ccco1 (stereo partly drawn)	-4%	-5%[46.1 µM]	-10%	-14%[46.1 µM]	1%	x	x	6%
Cc1ccsc1C(=O)NC(C)c1ccccc1 (stereo not drawn)	-2%	16%[46.1 µM]	11%	-1%[46.1 µM]	4%	x	x	-5%
CCCC(C(=O)Nc1ccncc1)c1ccccc1 (stereo not drawn)	-4%	19%[46.1 µM]	20%	-11%[46.1 µM]	-23%	x	x	6%
CC(=O)C(C)Oc1ccc2c3c(c(=O)oc2c1C)CCCC3 (stereo not drawn)	-1%	-29%	-1%	2%	u	-16%	4%	-121%
Cc1cc(C)c(OCC(=O)N/N=C/c2ccc3c(c2)OCO3)c(C)c1	5%	-42%	18%	-16%	-15%	0.2%	20µM*	-13%
CCOCCCn1c(=N)c(S(=O)(=O)c2ccc(C)cc2)cc2c(=O)n3cc(C)ccc3nc21	0%	13%[46.1 µM]	22%	u	1%	x	x	15%
CCn1nc(C)c(CNC(=O)C2CCC(=O)N(Cc3ccc(Cl)cc3)C2)c1C (stereo not drawn)	0%	1%	7%	u	2%	x	x	5%
CC(C)CNC(=O)c1ccccc1NC(=O)CSCc1ccccc1	9%	-21%	-25%	-13%	10%	-1.2%	-6%	1%
Cc1cc(C)cc(NC(=O)CSc2oc(-c3ccco3)nc2S(=O)(=O)c2ccc(Cl)cc2)c1	x	0%[46.1 µM]	-1%	u	x	-15%	-28%	x
O=C1CSC(=S)N1/N=C/c1cccnc1	4%	1%	-1%	17%[46.1 µM]	-1%	x	x	1.1µM*
COc1ccccc1CNC(=O)c1cccc2c1C(=O)N(Cc1cccnc1)C2	-2%	-8%	-11%	u	8%	x	x	x
CCOC(=O)n1cc(C(=O)c2ccccc2O)cn1	-4%	17%	-10%	6%	2%	x	x	8%
COc1ccc(C(=O)/C=C/Nc2ccc(NC(C)=O)cc2)cc1OC	-9%	4%	-4%	3%	-27%	-3.8%	17%	-17%
COC(=O)c1[nH]c(C)c(/C(O)=C2\C(=O)C(=O)N(CCN3CCOCC3)C2c2cccs2)c1C (stereo not drawn)	0%	11%	8%	21%&21%	8%	-0.6%	-12%	-5%
O=C(NC1CCCC1)C(c1ccc(Cl)cc1)N(C(=O)c1csnn1)C1CC1 (stereo not drawn)	9%	14%	-3%	-14%[46.1 µM]	0%	x	x	15%
O=C(COC(=O)c1cc2ccccc2cc1O)NCc1ccccc1	-4%	1%[46.1 µM]	8%	u	-4%	x	x	x
CNC(=S)NNC(=O)c1cccn(Cc2cccc(Cl)c2)c1=O	-7%	14%	-3%	u	9%	-3.8%	-6%	-2%
Cc1ccccc1C(=O)N1CCN(c2ccc(NC(=O)c3cccnc3)cc2)CC1	-3%	u	u	5%	23%	x	x	x
CC(=O)Nc1nc2cc3c(cc2s1)OCCO3	5%	x	5%	x	1%	x	x	-9%
COCc1c(C(=O)NC2CCCCCC2)oc2ccccc12	-5%	0%[46.1 µM]	28%	-2%[46.1 µM]	-19%	x	x	2%
CN1[C@@H]2CC[C@H]1CC(OC(=O)c1cc(Cl)cc(Cl)c1)C2 (stereo partly drawn)	x	x	-22%	u	x	-2.1%	7%	x
C=CCn1c(C(C)NC(=O)c2ccccc2)n[nH]c1=S (stereo not drawn)	-5%	6%	x	10%	14%	4.1%	-3%	15%
CCCn1c(N)c(C(=O)COC(=O)/C=C/c2ccc(OC(F)F)c(OC)c2)c(=O)[nH]c1=O	5%	0%[46.1 µM]	u	u	2%	x	x	x
Cc1cc(C)cc(NS(=O)(=O)c2ccc3[nH]cc(C(=O)N4CCCCC4)c(=O)c3c2)c1	x	-18%[46.1 µM]	31%[activator]	7%[46.1 µM]	x	-3.8%	2%	x
CCOC(=O)Cn1nc(CC)c2ccccc2c1=O	5%	0%	x	5%	-2%	8.9%	0%	3%
CCOc1ccc(C2CC(c3cccc(OC)c3)n3nc(N)nc3N2)cc1 (stereo not drawn)	-1%	x	-11%	x	4%	0.1%	19%	4%
COc1ccc(OCC(=O)NNc2c3ccccc3nc3ccccc23)cc1	-9%	u	22µM*	u	0%	-10%	4%	4%
CN(C(=O)Oc1cccc2ccccc12)C1C=CCC1 (stereo not drawn)	x	14%[46.1 µM]	15%	u	-15%	x	x	x
Clc1ccccc1OCCCCN1CCCC1	5%	-2%	-23%	u	-5%	3.9%	7%	-7%
N#CC1=C(O)CCCn2c1nc1ccccc1c2=O	1%	8%	x	4%	-4%	-2.7%	6%	1%
Cn1ccnc1SCC(=O)Nc1ccc2c(c1)OCCO2	-1%	x	31%[activator]	x	-12%	x	x	3%
COc1ccc(SCC(=O)Nc2ccccc2Cl)cc1	-2%	5%[46.1 µM]	-2%	u	-23%	x	x	-16%
COc1cccc(-n2ccnc2SCC(=O)Nc2nc3ccc(C)cc3s2)c1	x	-18%[46.1 µM]	u	x	x	-0.4%	u	x
CCCCc1cc2ccccc2c(OCCN(C)C)n1	5%	x	-20%	x	-8%	-4.1%	0%	x
CCCCCCNc1ncnc2c1sc1nc(N3CCOCC3)c3c(c12)CCCC3	x	6%[46.1 µM]	1%	11%[46.1 µM]	x	0.5%	12%	x
Cc1ccc2nc(-c3cc(-c4ccccc4)no3)cn2c1	-2%	0.89µM*	-48%	u	-5%	x	x	-25%
CCOC(=O)CSc1nc(N)c2c3c(sc2n1)CCCC3	1%	13%	2%	18%&18%	5%	-4.8%	-10%	-1%
CCN(CC)S(=O)(=O)c1ccc(N2CCCC2)c(C(=O)OCC(=O)Nc2cc(C)on2)c1	-1%	x	-4%	x	20%	x	x	-66%
CCOc1ccc(NCc2nnc(SCC(=O)Nc3nc(-c4ccccc4)cs3)n2-c2ccccc2)cc1	10%	-12%	-15%	u	-4%	0.5%	25µM*	12%
O=C(NC(=S)Nc1ccc2oc(=O)ccc2c1)c1cc2ccccc2o1	0%	23%	16%	-2%	-7%	x	x	0%
CC(=O)Nc1cc2c(cc1NC(=O)Cn1nc(-c3ccccc3)ccc1=O)OCCO2	13%	-5%[46.1 µM]	8%	11%[46.1 µM]	-3%	x	x	10%
O=C(Nc1ccc2oc(-c3cccnc3)nc2c1)c1ccc(Br)o1	-8%	4%	-28%	-11%	7%	-14%	-3%	11%
COc1ccc(NC(=O)c2c(NC(=O)C(F)(F)F)sc3c2CCCCC3)cc1	x	3.2µM*	-13%	x	x	-6.2%	-8%	x
CCCCn1c(N)c(Sc2ccc(C)cc2)c(=O)[nH]c1=O	2%	24%	-21%	0%	12%	-5.4%	0%	-5%
CC1CCN(c2cc(N3CCN(C(=O)c4ccc(F)c(F)c4)CC3)c([N+](=O)[O-])cc2F)CC1	-9%	u	-1%	u	-1%	-7.0%	8%	20%
CC(C)NC(=O)CSCc1ccccc1Cl	1%	4%	5%	u	6%	4.7%	3%	4%
COC(=O)C(Cc1ccccc1)NC(=O)CNC(=O)c1sc2ccccc2c1Cl (stereo not drawn)	8%	7%[46.1 µM]	13%	u	-10%	x	x	5%

Continued:
SMILES	SARS PLP yeast	Lassa entry inh	StopGo reporter	Marburg entry inh	RE007 growth inh	Cruzain inh Det	Cruzain noTriton	NS1 function inh
COc1ccc2c(c1)CCc1c(C(=O)Nc3c(C)nn(Cc4ccccc4C)c3C)noc1-2	x	u	u	u	x	-6.1%	-1%	x
CSc1ccc(CN2CCN(C(=O)c3ccc([N+](=O)[O-])cc3)CC2)cc1	0%	u	u	u	9%	x	x	0%
Cc1nc(-c2ccccc2)c(Cc2ccccc2O)c(=O)[nH]1	1%	x	-15%	x	x	5.6%	19%	-3%&-1%
Nc1ccccc1/C=N\N=C/c1ccccc1N	x	u	45%[activator]	u	-24%	x	x	x
COc1cccc(-n2c(=O)c3sc4ccccc4c3n(CC(=O)Nc3ccccc3OC)c2=O)c1	x	10%[46.1 µM]	-30%	6%[46.1 µM]	x	-2.0%	-3%	x

Screens (PubChem)
